Calb FLC – affects C. albicans growth with fluconazole; C. albicans CaCi-2 (fluconazole-resistant clinical isolate) + fluconazole, Alamar Blue growth, 48 h; growth inhibition, % (test concentration not listed); 300,000 compounds, 0.57% hits; AID 1979;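 active means most replicates above 75%; inconclusive means exactly half above 75%; inactive means most below 75%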;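 further: all wells also contain fluconazole at 8 µg/ml as a sub-toxic cotreatment; 0% = median of DMSO wells and 100% = median of geldanamycin control wells; wells of about 8 µL received 7.5 nL stock; the first replicate is given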
FGF22 binding – shifts melting point of recombinant human FGF22. Q9HCT0. recombinant FGF22 thermal shift, SYPRO orange fluorescence; percent of sucrose octasulfate shift, DMSO zero. calls only at 9.99 µM. 340,000 compounds, 1.5% hits. AID 651658;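 active means melting point raised past a set limit in the mean and every replicate; inconclusive means no clear call; three in four hits are not shown here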
Target sequence (Q9HCT0 whole entry, looked up): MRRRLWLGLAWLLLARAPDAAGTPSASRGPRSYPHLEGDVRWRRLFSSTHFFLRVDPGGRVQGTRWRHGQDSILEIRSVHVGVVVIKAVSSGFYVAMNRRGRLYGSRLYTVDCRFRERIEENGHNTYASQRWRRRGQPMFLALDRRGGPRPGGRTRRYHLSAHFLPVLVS
ALR H2O2 inh – inhibitors of human sulfhydryl oxidase ALR. P55789. purified ALR, DTT oxidation, H2O2 HRP-luminol luminescence. inhibition, % (test concentration not listed). 290,000 compounds, 3.8% hits. AID 485317;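 active means mean and each replicate at 75% or more; inconclusive means only one of the two met; inactive means neither met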;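 further: stock transfer was 7.5 nL into about 7.5 µL; 0% = neutral wells and 100% = wells with inactivated enzyme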
Target sequence (P55789 whole entry, looked up): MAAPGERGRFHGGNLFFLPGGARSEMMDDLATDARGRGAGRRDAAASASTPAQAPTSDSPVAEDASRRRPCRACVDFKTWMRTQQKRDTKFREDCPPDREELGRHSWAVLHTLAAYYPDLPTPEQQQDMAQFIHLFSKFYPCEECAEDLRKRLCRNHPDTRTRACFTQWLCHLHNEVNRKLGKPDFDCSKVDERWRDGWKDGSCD
T cruzi inh – T. cruzi replication inhibition; 300,000 compounds, 1.4% hits; AID 1885; inhibition, % (concentration not given with the values); T. cruzi beta-gal in NIH3T3, luminescence, 90 h;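 active means mean inhibition across valid replicates above about 55%, limit read from the data; inconclusive means mean below that limit but half or more replicates reach it; inactive means mean below it, under half of replicates reach it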;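 further: signal also drops with host cell toxicity which is not excluded here; 0% = plate median of DMSO wells and 100% = zero luminescence signal; higher percent means less beta-gal luminescence so fewer parasites; stock transfer was 50 nL into about 50 µL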
Ecoli rRNA inh – inhibits bacterial ribosomal RNA function over humanized ribosomes | GFP signal change (wild-type ribosome), % (no concentration beside the values) | 350,000 compounds, 1.6% hits | E. coli WT GFP vs humanized-ribosome RFP mutants, fluorescence, 24 h; stronger effect = lower value; DMSO median 0, no signal -100;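 active means significant combined selectivity score with lowered wild-type GFP, culture density cut under 30%, mutant RFP and density less affected; inactive means any of these conditions unmet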; further: one replicate is shown; some compounds called inactive have numbers as strong as hits
MLL AF4-AF9 inh – inhibitors of human MLL-AF4/AF9 interaction; AlphaScreen, biotin-AF4 peptide binding to FLAG-AF9; inhibition, % at 10 µM; 350,000 compounds, 0.47% hits; AID 651704;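 active means every replicate reaching a set inhibition limit, whatever the replicate mean, cut at about 25% in these data; inconclusive means mean inhibition reaches that limit but some replicates miss it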;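 further: 0% = plate neutral control median and 100% = total signal loss; the record names both 10 and 1 µM as test concentration; the first replicate is given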
Target sequence (P42568 whole entry, looked up): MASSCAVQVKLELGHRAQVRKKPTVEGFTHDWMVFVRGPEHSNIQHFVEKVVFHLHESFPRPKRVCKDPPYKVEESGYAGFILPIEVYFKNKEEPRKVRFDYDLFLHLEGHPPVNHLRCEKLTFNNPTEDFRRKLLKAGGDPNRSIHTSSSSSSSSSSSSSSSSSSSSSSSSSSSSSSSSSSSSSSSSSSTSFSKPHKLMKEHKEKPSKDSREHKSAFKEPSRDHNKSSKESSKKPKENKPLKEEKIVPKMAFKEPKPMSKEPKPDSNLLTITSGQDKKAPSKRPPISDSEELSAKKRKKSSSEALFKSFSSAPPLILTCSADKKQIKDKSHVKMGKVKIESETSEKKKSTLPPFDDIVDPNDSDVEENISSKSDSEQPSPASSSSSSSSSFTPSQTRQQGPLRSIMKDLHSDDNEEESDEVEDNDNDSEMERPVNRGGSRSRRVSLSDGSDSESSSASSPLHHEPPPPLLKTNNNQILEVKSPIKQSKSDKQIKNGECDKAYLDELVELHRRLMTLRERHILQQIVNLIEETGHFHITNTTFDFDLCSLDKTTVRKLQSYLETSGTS
Beta apoptosis – beta cell apoptosis inhibition | INS-1E cytokine-induced death, ATP luminescence, 48 h; percent of positive-control rescue, neutral wells zero | protection from apoptosis, % (test concentration not listed) | 300,000 compounds, 0.8% hits;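 active means all replicates at 75% or more, or half of them and the mean; inconclusive means half reach 75% but not the mean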;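 further: 0% = cytokine-treated negative control wells and 100% = positive control rescue; higher means more ATP so stronger rescue from cytokine killing; wells of about 40 µL received 100 nL stock; the first replicate is given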
RanGTP-Imp inh – disruptors of Ran-importin-beta complex formation – biochemical, FRET, CFP-Ran, YFP-importin-beta, homogeneous, primary screen; 300,000 compounds, 1.1% hits; cell-free CFP-Ran/YFP-importin-beta FRET ratio; inhibition, % (test concentration not listed);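 active means most replicates above 15%; inconclusive means exactly half above 15%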;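 further: 0% = DMSO wells and 100% = Ran loaded with GDP instead of GTP; wells of about 40 µL received 100 nL stock; the first replicate is given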
Ecoli rRNA inh OD600 – also measured in Ecoli rRNA inh; calls as there; OD600 change, %; measured here: OD600 growth;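 optical density of the mix in the first replicate; 0 = DMSO median and -100 = no signal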
Ecoli rRNA inh RFP – also measured in Ecoli rRNA inh; calls as there; RFP signal change, %; measured here: RFP humanized mutant strains;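 first replicate; 0 = DMSO median and -100 = no signal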
Active calls of the source: *; i = inactive; ? = inconclusive; · = no result given; & = joins results of further samples.

SMILES	Calb FLC	FGF22 binding	ALR H2O2 inh	T cruzi inh	Ecoli rRNA inh	Ecoli rRNA inh OD600	Ecoli rRNA inh RFP	MLL AF4-AF9 inh	Beta apoptosis	RanGTP-Imp inh
O=C(/C=C/c1ccccc1)N(Cc1cccc(Cl)c1)C1CCS(=O)(=O)C1 (centres undefined)	14	i	-2	7	-35*	-21*	-8.6*	1.3	-1	-0.5
COc1ccc(/C=N/n2cnc3c(sc(=S)n3-c3ccccc3)c2=O)cc1	-2	i	-5	3	7	14	-1.8	0.7	-4	2.5
CCN(CC)CCOc1nc(C)nc2c1oc1ccccc12	-15	·	·	6	·	·	·	·	1	-0.4
COc1cccc(-n2c(SC)nnc2-c2cnccn2)c1	38	·	-18	-7	·	·	·	·	-3	-1.4
C=CCN1C(=O)C(CC(=O)Nc2ccc(OCC)cc2)N(Cc2ccccn2)C1=S (centres undefined)	8	i	-4	12	-13	-14	-2.6	-1.3	2	-1.7
CC(=O)[C@@H]1[C@@H]2C(=O)N(c3ccc(F)c(Cl)c3)C(=O)[C@@H]2C2c3ccccc3C=CN21 (some centres undefined)	-1	·	-8	-7	·	·	·	·	-9	?
Cc1cc(C(=O)NCc2cccnc2)no1	-5	·	9	-25	·	·	·	·	-3	-0.3
Cc1ccc2cc(C=O)c(Cl)nc2c1	8	i	-7	5	10	9	-6.1	-2.5	-12	4.6
CCOC(=O)c1ccc(NC(=O)c2ccccc2C)cc1	-24	·	0	-5	·	·	·	·	3	-3.2
COc1ccc(CCN(C(=S)Nc2ccccc2)C2CC(=O)N(c3ccccc3)C2=O)cc1 (centres undefined)	-8	·	-5	-8	·	·	·	·	0	0.4
COc1ccc(C(=O)NC2CCN(C(=S)NCc3ccco3)CC2)cc1	2	i	-2	1	-10	5	0.4	-16	·	-3.1
Cc1cccc(-n2c(C)n[nH]c2=S)c1C	-6	·	77*	-4	·	·	·	·	-2	-0.8
O=c1cc(Cn2ccnc2)c2cc3c(cc2o1)CCC3	-10	·	0	-1	·	·	·	-0.5	-1	?
CCOC(=O)C(NC(C)=O)(Nc1ccc(S(=O)(=O)Nc2ccncn2)cc1)C(F)(F)F (centres undefined)	-1	·	-4	-8	·	·	·	·	-2	7.4
Cc1c(C)n(C)c2ccc(C(=O)NCCc3ccco3)cc12	6	i	10	13	-11	-10	28	0.6	-4	5.2
O=C(Cn1c(=O)cnc2ccccc21)NNC(=O)c1ccc(Cl)cc1	·	i	-9	·	6	24	-2.3	-0.9	-2	·
Cc1ccccc1NC(=O)c1ccccc1	-6	·	·	-8	·	·	·	·	-8	4.0
COc1ccc(OC)c(C2=NO[C@@](CC(=O)O)(C(=O)Nc3ccc4c(c3)OCCO4)C2)c1	-11	i	·	-15	8	7	-0.7	1.3	-5	3.2
Cc1cc(C)cc(N(C(=O)c2csnn2)C(C(=O)NC(C)(C)C)c2cccs2)c1 (centres undefined)	16	·	-4	-11	·	·	·	·	·	1.8
CCc1c(C)nc2ncnn2c1N1CCCC(C(=O)NCCc2ccccc2)C1 (centres undefined)	-3	i	-8	3	-7	-6	-1.1	4.3	-2	-1.1
O=C(CCNC(=O)C1CCN(S(=O)(=O)c2ccccc2)CC1)NCc1ccccn1	0	i	-2	8	3	4	1.6	-1.4	·	?
O=C(CNc1cccc(C(F)(F)F)c1)N/N=C/c1cccc(Br)c1	1	i	3	9	6	6	2.4	-1.0	2	3.1
CC1CC(=O)Nc2ccccc2N1S(=O)(=O)c1ccc(Cl)cc1 (centres undefined)	-6	i	-7	-5	8	4	0.2	0.6	8	2.0
C=CCn1c(CCNC(=O)c2cccs2)nnc1SCC(=O)Nc1cccc(F)c1	-6	·	-1	-9	·	·	·	·	-5	-9.2
Nc1nnc(SCCCOc2ccc(F)cc2)s1	-6	i	-13	0	-2	1	-0.7	-1.5	-5	1.8
SMILES	Calb FLC	FGF22 binding	ALR H2O2 inh	T cruzi inh	Ecoli rRNA inh	Ecoli rRNA inh OD600	Ecoli rRNA inh RFP	MLL AF4-AF9 inh	Beta apoptosis	RanGTP-Imp inh
Cc1nn(CC(=O)OCC(=O)NC(C)c2ccccc2)c(C)c1[N+](=O)[O-] (centres undefined)	-6	i	-3	-15	14	8	2.8	-2.6	-7	0.6
COc1cccc(C2=CC(c3cc(OC)ccc3OC)n3nnnc3N2)c1 (centres undefined)	3	·	-32	11	·	·	·	·	-6	-3.0
C/C(=N\OC(=O)c1ccc(F)cc1)c1nccs1	20	·	12	-10	·	·	·	·	1	0.1
COc1cccc2sc(NN)nc12	-7	i	98*	-2	-5	-5	-0.8	16	-13	-1.9
Nc1cc(C(=O)c2ccccc2)ccc1N1CCOCC1	-17	·	-4	2	·	·	·	·	2	0.0
Cc1ccc(NCC(=O)c2ccc([N+](=O)[O-])cc2)cc1	-14	·	48	12	·	·	·	·	0	-2.2
COc1cc(NC(C(=O)Nc2cccc(C(C)=O)c2)c2ccccc2)cc(OC)c1OC (centres undefined)	27	·	19	3	·	·	·	·	1	-1.9
CCOC(=O)NC(=O)CN1C(=O)NC2(CCc3ccccc32)C1=O (centres undefined)	2	i	-4	-7	12	24	0.5	-13	4	1.7
CCOc1ccc(S(=O)(=O)N(CC)CC(=O)N2CCCC2)cc1	1	i	-3	3	-4	4	-1.7	-7.1	-6	6.9
CN(C)C(=O)CSc1nnc(CCNC(=O)OC(C)(C)C)o1	1	·	-5	-19	·	·	·	·	-1	0.9
O=C(CNS(=O)(=O)/C=C/c1ccccc1)OC1CCOC1=O (centres undefined)	1	i	3	-8	15	13	2.0	-1.9	-2	-2.5
CN1CCN(c2oc(-c3ccccc3)nc2S(=O)(=O)c2ccc(Br)cc2)CC1	-6	·	-15	23	·	·	·	·	·	0.7
COc1cc(/C=N/NC(=O)CCn2nnc3ccccc32)ccc1O	8	i	99*	-6	12	18	2.6	-0.2	3	-0.7
O=C(NC(=S)Nn1cnc2c(cnn2-c2ccccc2)c1=O)c1ccccc1	35	·	53	6	·	·	·	·	0	-1.5
O=C(C1=C[C@@H](c2ccc(Br)cc2)C[C@@H](OCCCCO)O1)N1CCN(Cc2ccccc2)CC1	-7	i	-5	9	13	21	3.8	-13&2.4	56	0.1
COc1ccccc1-c1nnc(SCCN2CCOCC2)n1-c1ccc(C)cc1	-3	·	12	2	·	·	·	·	-15	5.0
CCN(CC)S(=O)(=O)c1ccc(N2CCOCC2)c(NC(=O)c2[nH]c(C)c(C(C)=O)c2C)c1	·	i	·	·	-7	-6	1.6	-2.9	0	·
Cn1c(SCC(=O)Nc2ccc(Cl)cc2)nc(O)cc1=O	9	i	·	-2	8	7	2.3	-3.6	-13	1.0
CSc1nc2sc3c(c2c2nnnn12)CCCC3	6	·	-19	19	·	·	·	·	4	8.4
Cn1c(=O)c2c(nc(Sc3ccccc3N)n2C)n(C)c1=O	2	i	-6	-3	6	8	1.0	0.9	2	1.3
C=CCn1c(C(C)(C)C)nc2ccccc21	-20	i	-6	-16	18	7	-0.9	0.3	-1	3.7
CCOC(=O)c1sc(=NC(=O)c2ccccc2)n(C)c1C	-1	i	·	10	1	11	-1.9	-2.4	-1	0.6
CC1=NN(C2=NS(=O)(=O)c3ccccc32)C(C)(O)C1 (centres undefined)	7	i	38	-7	20	16	3.5	1.0	-1	0.7
COc1ccc(NC(=O)c2oc3cc(C)c(C)cc3c2C)c(OC)c1	-1	·	-1	11	·	·	·	·	-9	?
CC(CCc1ccccc1)NC(=O)CSc1ccccc1 (centres undefined)	?	·	-10	5	·	·	·	·	-2	-2.2
SMILES	Calb FLC	FGF22 binding	ALR H2O2 inh	T cruzi inh	Ecoli rRNA inh	Ecoli rRNA inh OD600	Ecoli rRNA inh RFP	MLL AF4-AF9 inh	Beta apoptosis	RanGTP-Imp inh
CC(C)CCn1nnnc1C(c1ccc(F)cc1)N1CCN(C(=O)c2ccco2)CC1 (centres undefined)	-2	·	·	-11	·	·	·	·	-2	-1.0
CCN(C(=O)c1ccc(S(=O)(=O)N(C)C)cc1)C(C)C(=O)Nc1ccc(C)cc1 (centres undefined)	2	i	-18	4	9	8	0.4	0.7	1	3.2
O=C(NC1CCSc2ccccc21)c1ccc(C(F)(F)F)cc1 (centres undefined)	-7	i	5	9	9	17	2.7	-5.1	0	-0.8
O=C(O)C(F)(F)S(=O)(=O)O	-7	·	-8	-7	·	·	·	·	-8	4.6
Cc1cccc(NC(=O)C2CCN(S(=O)(=O)c3cccc4nsnc34)CC2)c1	-6	i	·	-4	0	4	-6.2	-9.5	-1	-2.0
Cc1ccc(S(=O)(=O)CCC(=O)OCc2nnc(-c3ccccc3Br)o2)cc1	·	i	1	·	3	-11	3.0	0.5	-1	·
Cc1noc(C)c1COC(=O)c1cccnc1SCC(=O)Nc1ccc2c(c1)OCO2	-16	·	-4	7	·	·	·	·	7	2.5
CCN1CCN(c2cc(C)c3cc(NC(=O)Cc4ccccc4OC)ccc3n2)CC1	-6	·	-2	71*	·	·	·	·	1	0.1
CC1CC(C)CN(C(=O)c2ccc(NC(=O)c3ccc(=O)[nH]c3)cc2)C1 (centres undefined)	2	i	-16	-10	8	6	0.4	2.2	-2	-3.8
Cc1csc(SCC(=O)NC(C)c2ccc(F)cc2)n1 (centres undefined)	4	i	-1	-8	-2	-10	-2.9	-2.1	2	1.5
CCOC(=O)N1CCN(C(=O)C2CCN(S(=O)(=O)c3ccc(OC)cc3)CC2)CC1	-2	i	-1	-9	7	11	3.8	-1.5	2	1.9
Fc1ccc2c(c1)C1C=CCC1C(c1cc3c(cc1Br)OCO3)N2 (centres undefined)	-1	·	-11	23	·	·	·	·	2	0.2
CCN1CCN(C(=O)CN(C)S(=O)(=O)c2ccc(OC)c(C)c2)CC1	0	·	-2	-7	·	·	·	·	-2	-0.4
CN(CCC#N)C(=S)Nc1ccc(F)cc1	5	i	-2	-14	9	9	0.4	0.8	-4	0.4
CCOC(=O)CN(C(=O)COc1nc(C)cc(C)c1C#N)c1ccc(F)cc1	-2	i	-12	-3	·	·	·	0.5	·	1.1
CCn1c(NCc2cc(Cl)ccc2O)nc2ccccc21	56	i	13	-9	4	9	16	-12	-5	-0.2
COC(=O)c1ccc(N/C=C/C(=O)c2ccccc2)cc1	-2	i	-30	-7	4	8	-2.1	-0.8	1	-2.3
O=C(CCCNc1ccccc1)N/N=C/c1cccs1	29	i	98*	4	6	12	3.0	-0.8	-11	5.5
Cn1c(C(=O)N[C@@H](Cc2ccccc2)C(=O)NCCC(=O)O)cc2cc(Cl)ccc21	3	i	-6	-11	-2	0	-1.1	-4.3	-2	-5.0
COc1ccc(N2CCN(C(=O)COC(=O)c3cccc(S(=O)(=O)Nc4ccccc4OC)c3)CC2)cc1	-2	i	2	8	-15	-11	-1.6	4.0	7	-1.9
CCOc1ccc(NC(=O)CCC(=O)N/N=C2\CCCc3ccccc32)cc1	7	i	-5	·	13	14	-1.8	-2.8	1	·
O=C(NCc1cccnc1)c1cccnc1-c1nc2ccccc2s1	-27	·	-22	-9	·	·	·	·	1	0.5
CCC(C)(C)NC(=O)C(c1ccc(O)cc1)N(Cc1ccco1)C(=O)CCC(=O)Nc1ccccn1 (centres undefined)	16	i	8	1	2	0	-0.7	0.4	-2	1.7

Only part of the results is shown (hit frequency here may not be typical).
